High-throughput results from PubChem.
MLL AF4-AF9 inh: inhibitors of human MLL-AF4/AF9 interaction. AlphaScreen, biotin-AF4 peptide binding to FLAG-AF9. actives 0.47% (n = 350,000). inhibition, % at 10 µM. P42568. AID 651704;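 active = every replicate reaching a set inhibition limit, whatever the replicate mean, cut at about 25% in these data; inconclusive = mean inhibition reaches that limit but some replicates miss it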;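 also: 0% = plate neutral control median and 100% = total signal loss; the record names both 10 and 1 µM as test concentration; the first replicate is given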
Ecoli growth: blocks Escherichia coli growth; OD600, 23 h; active compounds read low; OD600 absorbance (test concentration not listed); actives 0.21% (n = 330,000);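 active = OD600 absorbance below the run mean of sample wells minus 3.6 SD, in any replicate, cut at about 0.56 in these data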;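 also: stock transfer was 300 nL into about 60 µL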
UCH37 inh: blocks the human deubiquitinase UCH37; Q9Y5K5; purified proteasome/UCH37, Ub-AMC cleavage fluorescence; inhibition, % (concentration not given with the values); actives 0.33% (n = 330,000); AID 588478;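 active = mean of two replicates above 20%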;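 also: 0% = compound-free wells with enzyme and 100% = wells lacking proteasome; stock transfer was 100 nL into about 20 µL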
Target sequence (Q9Y5K5 whole entry, looked up): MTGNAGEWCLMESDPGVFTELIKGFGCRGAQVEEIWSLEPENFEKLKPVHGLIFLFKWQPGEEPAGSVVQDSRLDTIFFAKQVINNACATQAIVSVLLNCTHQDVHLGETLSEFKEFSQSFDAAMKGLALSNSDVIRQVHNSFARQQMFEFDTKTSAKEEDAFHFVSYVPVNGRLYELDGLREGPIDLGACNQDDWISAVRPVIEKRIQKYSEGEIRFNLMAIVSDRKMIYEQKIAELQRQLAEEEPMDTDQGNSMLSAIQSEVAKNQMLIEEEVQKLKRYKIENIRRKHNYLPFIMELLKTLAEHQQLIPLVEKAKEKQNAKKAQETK
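Signal – fluorescence, ex 355 nm, em 460 nm · System – Proteasome-bound UCH37 · Input – 0.15 nM proteasome as dispensed · Timing – 30 min preincubation with enzyme, 25 min cleavage at room temperature · Read-out basis – percent inhibition of cleavage signal versus uninhibited and no-proteasome wells · Medium – Tris-HCl pH 7.4 with ATP-MgCl2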
FGF22 binding: binders of recombinant human FGF22 by thermal shift; SYPRO orange fluorescence; percent of sucrose octasulfate shift, DMSO zero; calls only at 9.99 µM; actives 1.5% (n = 340,000);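 active = melting point raised past a set limit in the mean and every replicate; inconclusive = no clear call; three in four hits are not shown here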
Target sequence (Q9HCT0 whole entry, looked up): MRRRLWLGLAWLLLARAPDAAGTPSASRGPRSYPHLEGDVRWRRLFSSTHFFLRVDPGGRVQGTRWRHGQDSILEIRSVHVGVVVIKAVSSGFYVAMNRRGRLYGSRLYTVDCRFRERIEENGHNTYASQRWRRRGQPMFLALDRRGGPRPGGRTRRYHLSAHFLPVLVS
Vif TR-FRET: inhibitors of Vif binding to APOBEC3G peptide, primary screen, biochemical, TR-FRET, GST-Vif 1-94, biotin-A3G peptide, dose response retest (AID 1117319) | TR-FRET GST-Vif / biotin-A3G peptide binding; higher % means a stronger effect; test concentration not given here; strong numbers were not always called active | one-dose inhibition, %; IC50 in µM for titrated hits | actives 0.57% (n = 260,000);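 active = above the screen mean plus three standard deviations and confirmed in dose response; inconclusive = results disagree or hit not tested in dose response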;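 also: Vif residues 1-94 fused to GST binding biotinylated APOBEC3G peptide 110-148; 0% = full assay without inhibitor and 100% = GST in place of GST-Vif; retest series ran down from 100 µM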
RanGTP-Impb inh: inhibitors of RanGTP-importin-beta interaction, primary screen, biochemical, FRET, CFP-Ran, YFP-importin-beta, homogeneous | cell-free CFP-Ran/YFP-importin-beta FRET ratio | inhibition, % (test concentration not listed) | actives 1.1% (n = 300,000) | AID 2216;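 active = most replicates above 15%; inconclusive = exactly half above 15%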;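 also: 0% = DMSO wells and 100% = Ran loaded with GDP instead of GTP; wells of about 40 µL received 100 nL stock; the first replicate is given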
HNF4A DNA FP: change in binding of human HNF4 alpha to DNA; P41235; HNF4a-FITC DNA binding, fluorescence polarization, 1 h; activity change, % at 10 µM; actives 0.3% (n = 360,000); AID 1224865; in the data active = activity change above about 30%, passing the limit was not always enough;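 also: controls were the assay level and a saturating level of protein; the project sought stronger binding though the title names inhibitors; some compounds called inactive have numbers as strong as hits; positive values seem to mean higher polarization but the record does not say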
Target sequence (P41235 whole entry, looked up): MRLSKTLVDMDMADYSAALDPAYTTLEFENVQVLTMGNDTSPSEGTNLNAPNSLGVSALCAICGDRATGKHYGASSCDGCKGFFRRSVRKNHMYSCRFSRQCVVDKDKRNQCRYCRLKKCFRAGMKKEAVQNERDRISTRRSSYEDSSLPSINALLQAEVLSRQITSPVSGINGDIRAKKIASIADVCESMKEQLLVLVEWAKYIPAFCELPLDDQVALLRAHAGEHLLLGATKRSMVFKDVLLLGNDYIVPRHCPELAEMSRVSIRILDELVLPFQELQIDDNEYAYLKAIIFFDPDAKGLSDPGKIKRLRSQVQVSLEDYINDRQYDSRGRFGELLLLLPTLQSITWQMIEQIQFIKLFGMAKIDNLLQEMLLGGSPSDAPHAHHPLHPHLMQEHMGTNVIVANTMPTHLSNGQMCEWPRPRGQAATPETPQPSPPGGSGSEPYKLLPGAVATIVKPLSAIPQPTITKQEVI
* = called active by the depositor; i = inactive; ? = inconclusive; . = no result given; & = joins results of further samples.

no.	structure	FGF22 binding	HNF4A DNA FP	MLL AF4-AF9 inh	RanGTP-Impb inh	UCH37 inh	Ecoli growth	Vif TR-FRET
1	O=C(N/N=C/c1ccco1)c1cc(-c2ccc(Cl)cc2)n[nH]1	i	0.0	6.2	?	.	.	2%
2	CCOC(=O)C1=C(C)NC(C)=C(C(=O)OCC)C1C(=O)OCC(=O)N1CCc2ccccc2C1	.	-3.2	.	2.0	-14	0.67	1%&-4%
3	O=C(NCC1CCCN1S(=O)(=O)c1cccs1)C(=O)Nc1cccc(F)c1 (stereo unspecified)	i	-1.5	2.4	1.3	0.0	0.67	2%
4	O=C1c2ccccc2-c2cccc(C(=O)N3CCCCCC3)c21	.	-0.3	.	2.6	5.7	0.72	5%
5	CCOc1ccc(-n2c(=O)c3sccc3n(CC(=O)Nc3cccc(OC)c3)c2=O)cc1	i	-0.8	-7.1	6.5	4.7	0.71	.
6	Cc1nnc(Nc2ccc(C(=O)O)cc2)[nH]c1=O	.	-0.4	-0.8	1.4	3.2	0.71	-1%
7	Cc1cccc(OCCCC(=O)Nc2ccc(S(N)(=O)=O)cc2)c1C	.	1.9	.	-1.6	0.5	0.68	.
8	Cc1onc(-c2ccccc2)c1C(=O)/C=C/N(C)C	i	-2.3	1.9	17*	5.7	0.64	-5%
9	Cc1[nH]c2ccccc2c1/C=N/NC(=O)c1cccc([N+](=O)[O-])c1	.	3.5	-1.6	2.9	.	.	.
10	COc1cccc(C(=O)COc2ccc3c(C)c(Cc4ccccc4)c(=O)oc3c2)c1	i	1.0	-2.5	3.3	2.1	0.72	-2%
11	COc1ccc(C(CNC(=O)Cc2ccccc2)N2CCCCC2)cc1 (stereo unspecified)	i	-1.6	-1.4	1.5	3.8	0.64	.
12	COc1ccc(C(CNC(=O)c2cccc(NC(=O)c3cccs3)c2)N2CCCC2)cc1 (stereo unspecified)	i	0.2	4.8	.	2.5	0.7	-10%
13	CC(C)(C)CC(C)(C)SSc1n[nH]c(=S)s1	i	5.1	1.2	.	4.4	0.69	-2%
14	CC(Sc1nnc(CN2CCCC2)n1Cc1ccccc1)C(=O)Nc1ccc(F)cc1Cl (stereo unspecified)	i	2.7	4.6	.	2.6	0.68	-2%
15	CC(=O)Nc1ccc(S(=O)(=O)N2CCN(S(=O)(=O)N3CCOCC3)CC2)cc1	i	4.3	-1.0	2.5	3.2	0.71	.
16	CN(C)CCNC(=S)Nc1ccc(Cl)cc1Cl	i	-0.2	-0.1	-2.4	2.0	0.68	.
17	CC(/C=N\NC(=O)c1ccc2c(c1)OCO2)c1ccccc1 (stereo unspecified)	i	3.1	-1.1	0.3	.	.	-1%
18	C/C=C/C=C/C(=O)Nc1nccs1	i	3.3	-8.3	0.5	0.6	.	.
19	CCOc1ccc(NC(=O)CN2C(=O)NC3(CCCCCC3)C2=O)cc1	i	-1.1	2.7	.	3.1	0.69	.
20	Nc1nnc(-c2cccc(Cl)c2Cl)c(N)n1	i	3.8	-3.1	-0.1	4.3	0.54	19%&-9%
21	CCCCNC(=O)C(c1ccc(OCC(=O)OC)c(C(=O)OC)c1)N(CCOC)C(=O)CCCCCN1C(=O)NC(c2ccc(-c3ccccc3)cc2)C(C(=O)OCc2ccccc2)=C1C (stereo unspecified)	i	.	0.7	-3.3	.	.	2%
22	COc1ccc(S(=O)(=O)Nc2cccnc2)cc1	i	2.6	-2.4	0.5	-0.2	0.71	-4%
23	CCc1nnc(NC(=O)NCN2C(=O)C3C4C=CC(C4)C3C2=O)s1 (stereo unspecified)	.	-3.1	.	-2.2	0.9	0.71	-5%
24	CC(C)c1ccc(S(=O)(=O)N2CCN(C(=O)C3CC3C)CC2)cc1 (stereo unspecified)	i	-7.9	-2.7	-1.1	0.4	0.72	5%
25	CCOC(=O)/C(=C\c1cn(C)c2ccccc12)[N+](=O)[O-]	i	-1.4	3.0	-0.6	2.3	0.64	0%
26	Cc1cc(O)c(C2=Nc3ccccc3SC(c3ccc(Cl)cc3)C2)c(=O)o1 (stereo unspecified)	.	0.8	.	-2.0	7.7	0.71	15%
27	CCn1cc(C(=O)NCCCN2CC(C)CC(C)C2)c2cc(OC)c(OC)cc2c1=O (stereo unspecified)	.	3.5	.	0.8	0.1	0.67	8%
28	CCC(C)(C)c1nnc(NC(=O)C2CC(=O)N(CCc3ccc(F)cc3)C2)s1 (stereo unspecified)	i	-0.8	-1.4	-1.5	4.8	0.71	.
29	CCOC(=O)C(=O)C1=C(N2CCOCC2)/C(=C\c2ccc(F)cc2)CC1	i	-2.7	18	-4.4	9.9	0.71	.
30	Cc1ccc(/C=N/NC(=O)c2nnn(-c3nonc3N)c2CN(C)C)s1	i	-2.5	-1.0	5.0	.	.	12%
31	COC(C/C=C/[C@H](O)[C@H](C)OCc1ccccc1)OC	i	0.6	-27	?	.	.	.
32	Cc1cc(-c2cc(C(=O)Nc3ccccc3)on2)nc(NCC2CC2)n1	i	0.4	-12	1.5	-1.8	0.71	.
33	CC(C)(O)/C=C/C(=O)[C@](C)(O)C1[C@H](O)C[C@@]2(C)C3CC=C4C(C=C(O[C@@H]5O[C@H](CO)[C@@H](O)[C@H](O)[C@H]5O)C(=O)C4(C)C)[C@]3(C)C(=O)C[C@]12C (stereo partly specified)	i	-1.3	-11	.	2.8	.	.
34	COc1ccc(OS(=O)(=O)Cc2ccccc2)cc1	i	-0.2	-2.4	4.0	2.2	0.68	-2%
35	O=C(NCC1CCCO1)c1cc2ccccc2o1 (stereo unspecified)	i	-0.1	-4.3	-0.4	0.2	0.67	.
36	Cc1nn(-c2nc3ccccc3n2Cc2ccccc2)c2c1C(=O)CC(C)(C)C2	.	-0.5	.	.	0.7	0.78	-1%
37	COc1c2ccc(C(=O)NCCCCc3ccccc3)cc2nn1C	i	-5.5	.	-1.4	-31	0.71	-13%
38	N#CC1=C(N)OC2=C(C(=O)CCC2)C1c1cc2c(cc1Br)OCO2 (stereo unspecified)	i	-3.8	-8.5	-5.9	1.6	0.69	-12%
39	CC(C)[C@H](NC(=O)c1ccc(C(C)(C)C)cc1)C(=O)N1CCN(Cc2ccc3c(c2)OCO3)CC1	i	1.8	5.7	.	1.6	0.64	-10%
40	Cn1c(=O)cc(N2CCCCC2)[nH]c1=O	i	0.8	2.4	19*	4.1	0.66	-4%
41	Cc1ccc(C(=O)OCC(=O)NC2CCCCCC2)c(C)c1	.	0.0	-0.9	.	1.2	0.61	6%
42	O=C(Nc1ccc2c(c1)OCCO2)C1CCCN1S(=O)(=O)c1cccc2cccnc12 (stereo unspecified)	i	4.0	1.5	2.8	8.5	0.77	25%
43	CCN(C(=S)Nc1ccccc1F)C1CCCCC1	.	-3.5	.	6.5	-0.6	0.7	-5%
44	CN(C)C(=O)c1ccc(NC(=O)c2cccc(S(=O)(=O)N3CCCCCC3)c2)cc1	i	-0.2	0.8	.	.	.	.
45	C[C@]12c3[nH]c4ccc(Cl)cc4c3CCN1C(=O)[C@@H](CC(=O)NCc1ccco1)C[C@@H]2C(=O)N1CCCCC1	i	0.6	6.3	.	2.0	0.69	.
46	Cc1cccc2c(C(=O)O)c3c(nc12)CCCCC3	.	0.6	.	-2.6	1.1	0.75	16%
47	CN(CCOc1ccccc1)CC(O)COc1ccccc1 (stereo unspecified)	i	0.4	0.1	-0.6	1.3	0.64	-8%
48	CCOc1c2ccc(C(=O)NCc3cc(C(F)(F)F)cc(C(F)(F)F)c3)cc2nn1C	i	0.0	-1.2	-0.6	-49	0.68	3%
49	COC(=O)C1=C(C)Nc2nnnn2C1c1ccco1 (stereo unspecified)	.	1.7	.	2.9	1.5	0.74	5%
50	O=C(Nc1ccc(Cl)cc1)c1ccc2c(=O)n3c(nc2c1)CCCCC3	i	-1.7	-2.1	2.7	-11	0.69	-1%
51	Cc1c(NC(=O)COC(=O)COc2ccc(Nc3ccccc3)cc2)c(=O)n(-c2ccccc2)n1C	i	3.7	6.9	.	2.7	0.7	16%
52	CCC(Sc1ncccc1C(=O)OC(C)C)C(=O)N1CCOCC1 (stereo unspecified)	.	-0.4	.	-4.2	1.0	0.72	3%
53	CCC(OC(=O)CNS(=O)(=O)c1ccccc1)C(=O)c1ccccc1 (stereo unspecified)	i	-1.4	-0.3	1.1	1.9	0.68	.
54	CC(C(=O)NCc1cccs1)n1cccc1 (stereo unspecified)	.	0.9	.	-0.5	4.3	0.71	0%
55	Cc1nc(N2CCN(C(=O)c3ccco3)CC2)c2c3c(sc2n1)CC(C)CC3 (stereo unspecified)	i	1.8	5.0	-1.5	-4.9	0.67	4%
56	COc1cc(-c2cc(C(=O)Nc3ccncc3)c3ccccc3n2)cc(OC)c1OC	i	4.0	2.0	.	-18	0.68	.
57	O=C(NNC(=O)c1cccnc1SCc1cccc([N+](=O)[O-])c1)c1ccc(F)cc1	i	2.0	-2.0	-0.3	1.7	0.72	-4%
58	CCCOc1ccc(-c2c(C(=O)N/N=C/c3cccnc3)nnn2-c2nonc2N)cc1	i	9.9	-0.6	-1.2	.	.	-1%
59	CO/N=C(\c1ccccc1)c1cccnc1	i	-0.1	-3.2	4.7	.	.	.
60	O=C(CCC(=O)N1CCSc2ccccc21)Nc1cccc(F)c1	i	3.2	5.5	-1.3	0.1	0.66	.

The list continues:
no.	structure	FGF22 binding	HNF4A DNA FP	MLL AF4-AF9 inh	RanGTP-Impb inh	UCH37 inh	Ecoli growth	Vif TR-FRET
61	Cc1cc(C)c2c(-n3cccc3)nn(CC#N)c2n1	.	-1.6	.	4.5	5.4	0.73	15%
62	CCOC(=O)C1CCCN(S(=O)(=O)c2cnc(Cl)c(Br)c2)C1 (stereo unspecified)	i	-0.9	-5.9	1.3	1.6	0.71	.
63	COc1ccccc1OCCn1cc(C(=O)C(C)C)c2ccccc21	i	1.6	0.6	0.7	-1.1	0.7	.
64	COc1ccc(NC(=O)Nc2cccc3c2O[C@H](CN(C)S(=O)(=O)c2ccc(F)cc2)[C@@H](C)CN([C@H](C)CO)C3=O)cc1	i	1.5	-1.3&-0.3	.	-0.3	0.8	.
65	O=C(c1ccccc1)N1CCN(C(=O)C23CC4CC(CC(C4)C2)C3)CC1	.	0.6	.	-2.7	-0.7	0.7	5%
66	Cc1cccc(C)c1NC(=O)CSc1nnc(C2CCCCC2)o1	i	-0.7	-2.7	1.7	.	.	.
67	Cc1cc(C)n(CC2CC(=O)N(c3ccc(F)c(Cl)c3)C2=O)n1 (stereo unspecified)	.	4.4	.	.	-1.0	0.75	11%
68	COCc1cc(C)n(CC(=O)Nc2c(C)cccc2C)c(=O)c1C#N	i	0.8	-3.1	0.6	-64	0.72	.
69	CCc1nc2ccc(C(=O)NCC3CCCCC3)cn2c1N(C)C(=O)c1cccc(OC)c1	i	-3.1	-4.8	.	.	.	.
70	Cc1cc(C(=O)CCC(=O)NNC(=O)c2ccccc2O)c(C)s1	i	4.4	-3.0	5.5	-13	0.58	12%
71	Cc1ccc(S(=O)(=O)N(CC(=O)Nc2cccnc2)c2cccc(Br)c2)cc1	i	0.7	-0.4	-1.3	1.5	0.74	.

Compound profiles (already shown). Screens in order: FGF22 binding	HNF4A DNA FP	MLL AF4-AF9 inh	RanGTP-Impb inh	UCH37 inh	Ecoli growth	Vif TR-FRET
Profile of `CCOC(=O)C1CCCN(S(=O)(=O)c2cnc(Cl)c(Br)c2)C1` (stereo unspecified) = i	-0.9	-5.9	1.3	1.6	0.71	.
Profile of `Cc1cc(C(=O)CCC(=O)NNC(=O)c2ccccc2O)c(C)s1` = i	4.4	-3.0	5.5	-13	0.58	12%
Profile of `Cc1cc(C)c2c(-n3cccc3)nn(CC#N)c2n1` = .	-1.6	.	4.5	5.4	0.73	15%

A portion of the library. The share of hits here may be higher or lower than overall.
